Beta2AR agonist – agonists of human beta-2 adrenergic receptor inducing internalization | Am2.2-beta2AR cells, FAP receptor internalization, flow cytometry; reference of the scale not given here | response, % (test concentration not listed) | 340,000 compounds, 0.43% hits;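 active means response above a set limit, near 3 SD of response in nonfluorescent compounds, cut at about 42% in these data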;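 further: stock transfer was 100 nL into about 11 µL; a reference agonist was the positive control; negative values mostly stem from fluorescent compounds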
Target sequence (P07550 whole entry, looked up): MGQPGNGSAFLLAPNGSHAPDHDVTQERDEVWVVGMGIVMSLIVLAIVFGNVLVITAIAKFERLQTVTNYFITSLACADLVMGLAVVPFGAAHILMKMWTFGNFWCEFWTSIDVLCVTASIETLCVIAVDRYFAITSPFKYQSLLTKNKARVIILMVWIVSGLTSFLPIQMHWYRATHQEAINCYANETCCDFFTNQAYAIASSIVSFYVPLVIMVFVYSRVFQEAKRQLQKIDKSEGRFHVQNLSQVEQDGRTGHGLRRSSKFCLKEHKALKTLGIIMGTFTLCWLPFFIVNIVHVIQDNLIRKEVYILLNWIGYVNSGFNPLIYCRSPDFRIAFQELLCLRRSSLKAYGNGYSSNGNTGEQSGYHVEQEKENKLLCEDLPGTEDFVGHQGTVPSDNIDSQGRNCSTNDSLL
T cruzi repl – blocks replication of Trypanosoma cruzi; AID 1885; T. cruzi beta-gal in NIH3T3, luminescence, 90 h; 300,000 compounds, 1.4% hits; inhibition, % (no concentration beside the values);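 active means mean inhibition across valid replicates above about 55%, limit read from the data; inconclusive means mean below that limit but half or more replicates reach it; inactive means mean below it, under half of replicates reach it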;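 further: signal also drops with host cell toxicity which is not excluded here; 0% = plate median of DMSO wells and 100% = zero luminescence signal; higher percent means less beta-gal luminescence so fewer parasites; stock transfer was 50 nL into about 50 µL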
Bfl-1 A1 inh – inhibitors of the anti-apoptotic protein A1, read as caspase activation; MEF A1-2A-BIM cells, Caspase-Glo 3/7 luminescence, 3 h; percent of clofoctol response, vehicle zero; caspase activation, % (concentration not given with the values); 330,000 compounds, 0.066% hits;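 active means over half of replicate activation scores above 10%, or exactly half above 10 with the replicate mean above 10; inconclusive means replicate mean below 10 yet half the replicates above 10; inactive means over half of replicates below 10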;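 further: wells of about 30 µL received 50 nL stock; many hits fall short of the cut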
Calb FLC – affects C. albicans growth with fluconazole | C. albicans CaCi-2 (fluconazole-resistant clinical isolate) + fluconazole, Alamar Blue growth, 48 h | growth inhibition, % (test concentration not listed) | 300,000 compounds, 0.57% hits | AID 1979;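 active means most replicates above 75%; inconclusive means exactly half above 75%; inactive means most below 75%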;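 further: all wells also contain fluconazole at 8 µg/ml as a sub-toxic cotreatment; 0% = median of DMSO wells and 100% = median of geldanamycin control wells; wells of about 8 µL received 7.5 nL stock; the first replicate is given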
Ecoli rRNA inh – selective bacterial rRNA inhibition in E. coli. E. coli WT GFP vs humanized-ribosome RFP mutants, fluorescence, 24 h; hits give low values; DMSO median 0, no signal -100. 350,000 compounds, 1.6% hits. GFP signal change (wild-type ribosome), % (test concentration not listed);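 active means significant combined selectivity score with lowered wild-type GFP, culture density cut under 30%, mutant RFP and density less affected; inactive means any of these conditions unmet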; further: one replicate is shown; some compounds called inactive have numbers as strong as hits
ALR inh – inhibitors of human sulfhydryl oxidase ALR; P55789; purified ALR, DTT oxidation, H2O2 HRP-luminol luminescence; inhibition, % (concentration not given with the values); 290,000 compounds, 3.8% hits;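 active means mean and each replicate at 75% or more; inconclusive means only one of the two met; inactive means neither met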;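 further: stock transfer was 7.5 nL into about 7.5 µL; 0% = neutral wells and 100% = wells with inactivated enzyme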
Target sequence (P55789 whole entry, looked up): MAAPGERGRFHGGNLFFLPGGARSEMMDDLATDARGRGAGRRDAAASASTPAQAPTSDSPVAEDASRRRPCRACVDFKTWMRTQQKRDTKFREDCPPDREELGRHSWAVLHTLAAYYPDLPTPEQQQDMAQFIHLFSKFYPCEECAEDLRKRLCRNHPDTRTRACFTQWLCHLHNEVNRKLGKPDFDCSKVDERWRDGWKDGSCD
Beta apoptosis – blocks beta cell apoptosis. protection from apoptosis, % (test concentration not listed). 300,000 compounds, 0.8% hits. INS-1E cytokine-induced death, ATP luminescence, 48 h; percent of positive-control rescue, neutral wells zero;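 active means all replicates at 75% or more, or half of them and the mean; inconclusive means half reach 75% but not the mean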;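 further: 0% = cytokine-treated negative control wells and 100% = positive control rescue; higher means more ATP so stronger rescue from cytokine killing; wells of about 40 µL received 100 nL stock; the first replicate is given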
LANA-H2B inh – blocks KSHV LANA binding to histone H2A/H2B; Q9QR71; cell-free LANA-H2A/H2B peptide, fluorescence polarization; inhibition, % (test concentration not listed); 320,000 compounds, 0.6% hits; AID 2629; in the data active means inhibition mostly above about 10%, no sharp cut-off; inactive means mostly below about 6.7%;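 further: stock transfer was 7.5 nL into about 10 µL; 0% = median of vehicle wells and 100% = median of positive control wells; one replicate is shown; the record names a cut of 25% in any replicate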
Ecoli rRNA inh OD600 – recorded beside Ecoli rRNA inh, whose call it bears; OD600 change, %; measured here: OD600 growth;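 optical density of the mix in the first replicate; 0 = DMSO median and -100 = no signal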
Ecoli rRNA inh RFP – recorded beside Ecoli rRNA inh, whose call it bears; RFP signal change, %; measured here: RFP humanized mutant strains;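 first replicate; 0 = DMSO median and -100 = no signal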
Active calls of the source: *. An excerpt. The share of hits here may be higher or lower than overall.

How did O=C(O)c1[nH]c2ccc(Br)cc2c1CCN1C(=O)c2cccc([N+](=O)[O-])c2C1=O do in these assays?
Beta2AR agonist: 11; T cruzi repl: -10; Bfl-1 A1 inh: 0.8; Calb FLC: -3; Ecoli rRNA inh: -28*; ALR inh: -5; Beta apoptosis: -7; LANA-H2B inh: 3.9; Ecoli rRNA inh OD600: 7.3*; Ecoli rRNA inh RFP: 3.3*

How did NS(=O)(=O)c1cccnc1Nc1c(Cl)cccc1Cl do in these assays?
Beta2AR agonist: 5; T cruzi repl: 1; Bfl-1 A1 inh: 0.0; Calb FLC: -7; Beta apoptosis: 16; LANA-H2B inh: -0.7

Results for COc1ccc(CC(=O)N2CCN(c3ccccc3F)CC2)cc1OC ?
Beta2AR agonist: 4; T cruzi repl: 1; Bfl-1 A1 inh: 0.1; Calb FLC: 4; Ecoli rRNA inh: 6; ALR inh: 8; Beta apoptosis: -5; LANA-H2B inh: 1.1; Ecoli rRNA inh OD600: -1; Ecoli rRNA inh RFP: 4.9

How did O=C(CC1CCCC1)NCCc1cn2ccccc2n1 do in these assays?
Beta2AR agonist: 17; T cruzi repl: -19; Bfl-1 A1 inh: -0.3; Calb FLC: 7; Ecoli rRNA inh: 2; ALR inh: -7; Beta apoptosis: 4; LANA-H2B inh: 0.1; Ecoli rRNA inh OD600: 4; Ecoli rRNA inh RFP: 9.6

What do the screens show for `CCN(CC)C(=O)C1CCCN(c2ccc([N+](=O)[O-])cc2/C=N/NC(=O)c2ccccc2)C1` (stereo unspecified)?
Beta2AR agonist: -18; T cruzi repl: -6; Bfl-1 A1 inh: 0.1; Calb FLC: -2; Beta apoptosis: 1

How did Cc1onc(-c2c(F)cccc2Cl)c1C(=O)NCc1ccc(S(N)(=O)=O)cc1 do in these assays?
Beta2AR agonist: 1; Bfl-1 A1 inh: -0.5; ALR inh: 6; Beta apoptosis: -4; LANA-H2B inh: -4.7

Results for Cc1ccnc(NS(=O)(=O)c2ccccc2)c1 ?
Beta2AR agonist: 3; T cruzi repl: 2; Bfl-1 A1 inh: 0.6; Calb FLC: 5; Ecoli rRNA inh: 14; ALR inh: -24; Beta apoptosis: -5; LANA-H2B inh: 0.4; Ecoli rRNA inh OD600: 20; Ecoli rRNA inh RFP: 0.3

Results for CC(=O)c1ccc(C(=O)N2CCc3c([nH]c4ccccc34)C2c2cccc(C)n2)s1 (stereo unspecified) ?
Beta2AR agonist: 9; T cruzi repl: 15; Bfl-1 A1 inh: 2.5; Calb FLC: inconclusive; Ecoli rRNA inh: -11; Beta apoptosis: -9; LANA-H2B inh: -2.2; Ecoli rRNA inh OD600: -7; Ecoli rRNA inh RFP: 14

How did Cc1ccc(SCC(=O)NC(C)c2ccccc2)cc1 (stereo unspecified) do in these assays?
Beta2AR agonist: -3; T cruzi repl: 1; Bfl-1 A1 inh: 1.6; Calb FLC: -3; Ecoli rRNA inh: 6; ALR inh: 0; Beta apoptosis: -8; LANA-H2B inh: 7.3; Ecoli rRNA inh OD600: -3; Ecoli rRNA inh RFP: -1.2

Results for Cc1ccc(NC(=O)Cn2c(CCC(=O)O)ccc2-c2cccs2)cc1Cl ?
Beta2AR agonist: 5; T cruzi repl: -1; Bfl-1 A1 inh: 1.3; Calb FLC: 3; Ecoli rRNA inh: -13; ALR inh: 54; Beta apoptosis: 2; LANA-H2B inh: 4.9; Ecoli rRNA inh OD600: -19; Ecoli rRNA inh RFP: -5.0

How did CSC1=C(C#N)C(CC(C)C)C2=C(CCCC2=O)N1 (stereo unspecified) do in these assays?
Beta2AR agonist: -5; T cruzi repl: -4; Bfl-1 A1 inh: -0.5; Calb FLC: -3; ALR inh: 2; Beta apoptosis: -10; LANA-H2B inh: 2.4

What do the screens show for `CCOC(=O)C1=C(O)C(=O)N(c2ccc(S(N)(=O)=O)cc2)C1c1ccccc1` (stereo unspecified)?
Beta2AR agonist: -2; T cruzi repl: -19; Bfl-1 A1 inh: 1.2; Calb FLC: -1; ALR inh: 4; Beta apoptosis: -5; LANA-H2B inh: -2.8

How did COc1ccccc1N1CCN(CC(=O)Nc2ccccc2C(=O)NC(C)c2ccccc2)CC1 (stereo unspecified) do in these assays?
Beta2AR agonist: 11; Bfl-1 A1 inh: -0.7; Ecoli rRNA inh: -6; ALR inh: -2; Beta apoptosis: 0; LANA-H2B inh: 2.5; Ecoli rRNA inh OD600: -12; Ecoli rRNA inh RFP: 0.5

What do the screens show for `CCOC(=O)c1c(NC(=O)COC(=O)c2ccccc2NC)sc(C(=O)N(C)C)c1C`?
Beta2AR agonist: 15; T cruzi repl: 59*; Bfl-1 A1 inh: 2.7; Calb FLC: 9; Ecoli rRNA inh: -2; ALR inh: -2; Beta apoptosis: 8; LANA-H2B inh: -5.2; Ecoli rRNA inh OD600: -1; Ecoli rRNA inh RFP: 0.3

Results for O=C(NCCCCCCNC(=O)OCCO)OCCO ?
Beta2AR agonist: -1; T cruzi repl: 1; Bfl-1 A1 inh: 0.2; Calb FLC: 1; Ecoli rRNA inh: 22; ALR inh: -6; LANA-H2B inh: 0.1; Ecoli rRNA inh OD600: 13; Ecoli rRNA inh RFP: 7.1

How did COc1ccc(CCNC(=O)CSc2ncnc3c2oc2ccccc23)cc1OC do in these assays?
Beta2AR agonist: 0; T cruzi repl: -3; Bfl-1 A1 inh: 1.3; Calb FLC: -9; Beta apoptosis: -3; LANA-H2B inh: -3.2

What do the screens show for `O=S(=O)(c1cccc(-c2nnc3n2CCCCC3)c1)N1CCOCC1`?
Beta2AR agonist: 4; T cruzi repl: -10; Bfl-1 A1 inh: 0.0; Calb FLC: 3; Ecoli rRNA inh: 2; ALR inh: -4; Beta apoptosis: -7; LANA-H2B inh: -6.6; Ecoli rRNA inh OD600: -2; Ecoli rRNA inh RFP: -1.7

Results for CNC(=S)NNC(=O)c1sccc1OCc1ccccc1 ?
Beta2AR agonist: -22; T cruzi repl: 0; Bfl-1 A1 inh: -0.1; Calb FLC: -7; ALR inh: 6; Beta apoptosis: -3; LANA-H2B inh: 1.5

Results for CC1CN(C(=O)CCN2C(=O)c3ccccc3C2=O)CC(C)O1 (stereo unspecified) ?
Beta2AR agonist: 3; T cruzi repl: -6; Bfl-1 A1 inh: -1.4; Calb FLC: -25; ALR inh: 1; Beta apoptosis: -10; LANA-H2B inh: 5.7

What do the screens show for `COC(=O)c1ccsc1NC(=O)CN1CCN(Cc2ccc3c(c2)OCO3)CC1`?
Beta2AR agonist: -5; T cruzi repl: 36; Bfl-1 A1 inh: -0.6; Calb FLC: -44; ALR inh: 0; Beta apoptosis: 3; LANA-H2B inh: 0.5

Results for CCO[C@H]1OC(C(=O)NC2CC2)=C[C@@H](c2c[nH]c3ccccc23)[C@@H]1CCCO ?
Beta2AR agonist: -17; T cruzi repl: -6; Bfl-1 A1 inh: 0.1; Calb FLC: 0; Ecoli rRNA inh: 1; Beta apoptosis: -12; LANA-H2B inh: 3.0; Ecoli rRNA inh OD600: -5; Ecoli rRNA inh RFP: -13

What do the screens show for `CC(=O)Nc1ccc(NC(=S)NC(=O)c2ccc([N+](=O)[O-])cc2)cc1`?
Beta2AR agonist: -20; T cruzi repl: 9; Bfl-1 A1 inh: 0.2; Calb FLC: -1; ALR inh: -10; Beta apoptosis: 0; LANA-H2B inh: 0.1

How did Cc1ccc(C2(c3noc(CN4CCOCC4)n3)CCCC2)cc1 do in these assays?
Beta2AR agonist: -14; T cruzi repl: -14; Bfl-1 A1 inh: 1.0; Calb FLC: 7; Ecoli rRNA inh: 16; ALR inh: -3; Beta apoptosis: 4; LANA-H2B inh: 3.2; Ecoli rRNA inh OD600: 12; Ecoli rRNA inh RFP: 2.4

Results for Cc1cccc(C)c1NC(=O)C[n+]1cc(-c2ccccc2)n2c1CCC2 ?
Beta2AR agonist: 14; T cruzi repl: -41; Bfl-1 A1 inh: 0.4; Calb FLC: -19; Ecoli rRNA inh: -2; Beta apoptosis: -5; LANA-H2B inh: 4.2; Ecoli rRNA inh OD600: 1; Ecoli rRNA inh RFP: -1.6

Results for CCCCCn1c(CCCNC(=O)CC)nc2ccccc21 ?
Beta2AR agonist: -6; T cruzi repl: 2; Bfl-1 A1 inh: 0.8; Calb FLC: 6; Ecoli rRNA inh: 4; ALR inh: -9; Beta apoptosis: 3; LANA-H2B inh: 9.5; Ecoli rRNA inh OD600: -8; Ecoli rRNA inh RFP: -6.8

How did CC(C)(C)NCC(O)COc1ccccc1C(C)(C)C (stereo unspecified) do in these assays?
Beta2AR agonist: 0; T cruzi repl: 15; Bfl-1 A1 inh: -0.2; Calb FLC: -11; Ecoli rRNA inh: 10; ALR inh: 2; Beta apoptosis: 1; LANA-H2B inh: 1.6; Ecoli rRNA inh OD600: 0; Ecoli rRNA inh RFP: 0.7

What do the screens show for `NCCc1nnc(SCC(=O)Nc2cccc(Cl)c2)o1`?
Beta2AR agonist: 0; T cruzi repl: -12; Bfl-1 A1 inh: -0.3; Ecoli rRNA inh: 3; ALR inh: 99*; Beta apoptosis: -5; LANA-H2B inh: -2.9; Ecoli rRNA inh OD600: 5; Ecoli rRNA inh RFP: -2.4

Results for CCOc1cc(-c2nccc3cc(OC)c(OC)cc23)cc(OCC)c1OCC ?
Beta2AR agonist: -1; T cruzi repl: 19; Bfl-1 A1 inh: -0.4; Calb FLC: 2; Ecoli rRNA inh: -16; ALR inh: -7; Beta apoptosis: -18; LANA-H2B inh: 0.6; Ecoli rRNA inh OD600: -14; Ecoli rRNA inh RFP: -1.2

How did CCC/C=N/NC(=O)CNC(=O)c1ccccc1Cl do in these assays?
Beta2AR agonist: -2; T cruzi repl: -7; Bfl-1 A1 inh: -0.8; Calb FLC: 3; Ecoli rRNA inh: 8; ALR inh: 6; Beta apoptosis: -9; LANA-H2B inh: -1.4; Ecoli rRNA inh OD600: 8; Ecoli rRNA inh RFP: 0.0

Results for CSCCC(NC(=O)c1cccc(S(=O)(=O)N2CCOCC2)c1)C(=O)Nc1cccc(C)c1 (stereo unspecified) ?
Beta2AR agonist: 4; T cruzi repl: -4; Bfl-1 A1 inh: 0.1; Calb FLC: -1; Ecoli rRNA inh: 13; ALR inh: -8; Beta apoptosis: 2; LANA-H2B inh: 3.9; Ecoli rRNA inh OD600: -1; Ecoli rRNA inh RFP: 0.6

What do the screens show for `Cc1cc(CSc2ccccc2)ccc1NC(=O)c1ccc(Cl)c([N+](=O)[O-])c1`?
Beta2AR agonist: 2; T cruzi repl: 13; Bfl-1 A1 inh: 0.0; Calb FLC: -4; ALR inh: -6; Beta apoptosis: 6; LANA-H2B inh: -21

How did Nc1nnc(-c2cccc([N+](=O)[O-])c2)o1 do in these assays?
Beta2AR agonist: 3; T cruzi repl: 4; Bfl-1 A1 inh: 0.7; Calb FLC: 2; Ecoli rRNA inh: 0; ALR inh: -2; Beta apoptosis: -5; LANA-H2B inh: 6.5; Ecoli rRNA inh OD600: 5; Ecoli rRNA inh RFP: -5.8

Results for CN1CCN(c2ccc([N+](=O)[O-])c(-n3nc(-c4ccccc4)c4ccccc4c3=O)c2)CC1 ?
Beta2AR agonist: -10; T cruzi repl: 51; Bfl-1 A1 inh: -1.0; Calb FLC: 28; ALR inh: 1; Beta apoptosis: -1; LANA-H2B inh: 2.8
